CDC25B-CDK2 inh – human CDC25B-CDK2/CyclinA binding inhibition; P30305+P24941; z-score (test concentration not listed); hit rate 0.72% among 94,000; HTRF CDC25B-CDK2/CyclinA binding, anti-His/anti-Flag; active compounds read high;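 further: score is relative to mean and SD of negative controls; strong numbers were not always called active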
TAR Tat displ – HIV-1 TAR-Tat binding disruption | z-score (no concentration beside the values) | hit rate 0.6% among 100,000 | HIV-1 TAR RNA, Tat peptide displacement FRET; active compounds read high;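 further: score is relative to mean and SD of negative controls; some compounds called inactive have numbers as strong as hits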
An asterisk follows results filed as active; . = no result given.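 How the source made its calls: active means z-score from 3 up in half or more of its runs; inactive means the rest.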

SMILES	CDC25B-CDK2 inh	TAR Tat displ
COc1ccc(Cl)cc1NC(=O)NC(C)c1c(-n2cccc2)sc(C)c1C (configuration not stated)	-9.4	-0.46
Cc1cc(NC(=O)N2CCSc3ccccc32)ccc1Br	.	0.97
CCOc1ccc(NS(=O)(=O)c2cc(Br)cc3c2N(C(=O)C2CC2)CC3)cc1	-1.5	.
CC(=O)Cn1c2ccccc2n2nc(C)c(=O)nc12	0.26	.
CN(C)/C=C1\CCCc2ccccc2C1=O	-0.67	.
CN(Cc1cnn(-c2ccccc2)c1)C(=O)Cn1c(=O)oc2ccccc21	.	1.2
O=C(Cn1ncc2c([nH]c3ccccc32)c1=O)NCCN1CCOCC1	.	1.9
C=CCn1c(=O)sc2cc(NC(=O)c3ccc(Br)o3)ccc21	.	1.3
Cc1cc2cc(CCNC(=O)C3CCCCC3)c(=O)[nH]c2cc1C	-0.67	.
NCCCC(=O)N1c2ccccc2Sc2ccccc21	-1.1	0.55
COC(=O)C1C(=O)C2=C(CC1C)NC(C)=C(C(=O)OC1CCCC1)C2c1ccc(C)cc1 (configuration not stated)	-0.41	0.92
CCOc1nnc(-c2ccc(C)cc2)c2ccccc12	-0.24	.
CCOCCCN(C)C1CCN(S(=O)(=O)c2ccc3c(c2)CCCC(=O)N3)CC1	.	0
CN(C)/C=C1/C=C(c2ccccc2)OC1=S	-0.33	-1.5
CCOC(=O)c1cccc(CSc2nc(-c3ccccc3)c(C#N)c(=O)[nH]2)c1	0.66	0.5
CC1CCN(C(=O)Cn2cc(C(=O)C3CC3)c3ccccc32)CC1	-0.35	1.8
CCOC(=O)c1nc(C)sc1-c1ccn[nH]1	0.57	.
Cc1ccc(-n2ncc3c(N(C)Cc4ccccc4)ncnc32)c(C)c1	-0.58	.
COC(=O)c1cc(C)nc2c1c(=O)nc(SCc1ccccc1C)n2C1CC1	.	-0.26
NC(=O)c1c(NC(=O)C2CCCN(C(=O)C3CCCC3)C2)sc2c1CCCC2 (configuration not stated)	-0.65	-1.1
COc1cccc(C2C(C#N)=C(N)Oc3n[nH]c(-c4ccccc4)c32)c1 (configuration not stated)	-2.8	2.4
O=C(NO)c1nc[nH]c1C(=O)NO	-2.9	.
Cc1c(Cl)cccc1NC(=S)N1CCN(c2ccc([N+](=O)[O-])cn2)CC1	-0.08	.
CN1CCN(Cc2c(O)ccc3c(=O)c(-c4ccccc4)c(C(F)(F)F)oc23)CC1	-0.81	0.81
O=C(O)c1cc2sccc2s1	-0.79	.
CCOC(=O)c1ccc2c(c1)[C@@H]1C=CC[C@@H]1[C@H](c1ccccc1C(F)(F)F)N2	6.2	.
O=C(c1cc(-c2cccs2)[nH]n1)N1CCN(S(=O)(=O)c2ccc(Cl)cc2)CC1	.	0.98
CC(NS(=O)(=O)c1ccccc1)c1nc(-c2ccccc2)no1 (configuration not stated)	-0.15	2.3
Cc1ccc(CNC(=O)CSc2nncn3c2cc2oc(C)cc23)cc1	.	1.5
COC(=O)C1=C(C)NC2=C(C(=O)c3ccccc32)C1c1ccc(OC)c(C)c1 (configuration not stated)	.	-0.56
Cc1nc(-c2ccc3c(c2)OCCCO3)cs1	0.2	.
CCOC(=O)Cc1c(SC)c2ccccc2n1C	-2.3	-0.1
COc1cc(Nc2nc3ccc(C)cc3n3cnnc23)cc(OC)c1	-0.12	0.64
NC(=O)CSc1nc2c(oc3ccccc32)c(=O)n1Cc1ccc(F)cc1	-3.7	2.2
COc1cccc(OCC(=O)Nc2nnc3n2CCS3)c1	.	0.35
Cc1cccc(OCCCCSCc2nc3ccccc3[nH]2)c1	-0.78	2
CN(CCCNC(=O)C1CCCN(c2nn3c(=O)c4c(nc3s2)CCCC4)C1)c1ccccc1 (configuration not stated)	.	3.6
O=C(NCc1ccccc1)c1nn2c(c1Br)NC(c1ccccc1)CC2C(F)(F)F (configuration not stated)	-0.13	-0.13
O=C(CCC(=O)N1CC2CCCN2c2ccccc21)NCCN1CCOCC1 (configuration not stated)	.	-1
COc1ccccc1Cn1cnc2c1c(=O)n(C)c(=O)n2C	-0.61	.
COc1ccc(C2C(=O)N(C3CCCCCC3)CC(=O)N2CCc2ccc(OC)c(OC)c2)cc1 (configuration not stated)	-2.5	.
CCCCOC(=O)c1ccc2c(c1)C(=O)NC2=O	-0.95	1.8
O=c1[nH]cnc2c1nnn2-c1ccc(F)cc1	-0.9	0.76
CSc1nnc(-c2ccc(Br)cc2)o1	-1.4	0.25
COc1ccc(Cl)cc1NC(=O)COc1cc(CSc2nncn2C)ncc1OC	.	1.2
N#C/C(=C\N1CCN(c2ccccc2)CC1)S(=O)(=O)c1ccccn1	-3.8	.
CCN1C(=O)c2ccccc2Sc2ccc(NC(=O)NCCCN3CCN(C)CC3)cc21	0.02	0.63
CCCC1=NN(S(=O)(=O)c2ccc(C)cc2)C(O)(C(F)(F)F)C1 (configuration not stated)	-0.29	.
CCc1ccc(-c2nc3cc(NS(=O)(=O)c4ccccc4)ccc3o2)cc1	-2.2	0.71
CCOC(=O)C1CCN(C(=O)c2ccc(N3CCOc4ccc(Cl)cc43)s2)CC1	.	0.8
CCOC(=O)C1CCN(C(=O)CCc2nnc3ccc(N4CCN(C)CC4)nn23)CC1	.	1.6
c1ccc2c(c1)c1ccccc1c1[nH]cnc21	1.7	.
CCN(CC)C(=O)c1ccc(CS(=O)c2cccc(Cl)c2)o1 (configuration not stated)	.	0.74
COc1ccc(C(C(C)=O)C(C)=O)c(C(=O)O)c1	-1.4	.
O=C(O)c1nccnc1C(=O)Nc1cc(C(F)(F)F)ccc1N1CCCC1	4	.
Cc1nn(C(C)C(=O)NC2CCC(C)CC2)c(=O)c2nn(-c3ccccc3)c(C)c12 (configuration not stated)	.	0.04
CC(=O)c1c(C)oc2ccc(N(C(=O)c3ccncc3)S(=O)(=O)c3ccccc3)cc12	-0.83	.
O=c1cc(-c2cc(Br)cc3c2OCOC3)oc2ccccc12	-0.83	0.13
CCN1C(=O)Cc2cc(NS(=O)(=O)c3c(C)c(C)c(C)c(C)c3C)ccc21	.	0.15
CN(C)c1nc2c(N)ncnc2n1[C@H]1O[C@@H](CO)[C@H](O)[C@@H]1O	-0.23	.

More structures follow:
SMILES	CDC25B-CDK2 inh	TAR Tat displ
CC(=O)OC1=CCC2C3CC[C@@]4(C)CC(OC(C)=O)CCC4(C)C3C(OC(C)=O)CC12C (some centres not stated)	-1.5	.
COc1ccc(C(=O)Nc2ccc(O)c(-c3nc4cc(C)c(C)cc4o3)c2)cc1[N+](=O)[O-]	-0.56	.
Cc1n[nH]c(C)c1Cc1cc(C(=O)NCCN(C)C)sc1N1CCOCC1	.	0.62
CN1C(C(=O)NC2CCCC2)=CC(c2cccs2)=NS1(=O)=O	-1.9	2.2
O=C(Cn1ncn2cccc2c1=O)Nc1ccc(F)cc1	-2.2	2.6
CCCCn1c(C)c(C)c2c1ncn1nc(-c3ccccc3C)nc21	-0.56	1.4
Cc1nnsc1C(=O)Nc1nnc(SC/C=C/c2ccccc2)s1	0.22	2.3
COc1ccc(-c2nc(-c3cc(Cl)ccc3OC)no2)cc1OC	-0.44	1.1
CCOC(=O)c1[nH]c2ccccc2c1N	.	0.93
CCn1nc(C)c(CCNS(=O)(=O)c2cc3c(cc2C)NC(=O)CO3)c1C	.	0.16
O=C(c1cc2ccccc2o1)N1CCN=C1SCc1ccc(F)cc1	-1.7	.
COc1ccc2sc(N(CCN(C)C)C(=O)c3nc4ccccc4s3)nc2c1	.	2.2
CCN(C(=O)c1nn(C)c2c1CSc1ccccc1-2)c1ccc(F)cc1	-0.39	1.5
CCOc1ccc(C(=O)CC2(O)C(=O)Nc3ccc(Cl)cc32)cc1 (configuration not stated)	-1.3	.
C=CCn1c(=O)n(C(C)C)c(=O)c2c3c(sc21)COC(C)(C)C3	-2.2	1.1
CCCNC(=O)CCc1c(C)nc2nc(NCc3cccs3)[nH]n2c1=O	-1	-0.31
O=C(O)CCC(=O)CCC(=O)c1ccc(Br)cc1	-1.1	0.05
COc1ccc(C2CC(SCC(=O)c3ccc(Cl)cc3)=Nc3ncnn32)cc1 (configuration not stated)	-0.01	0.54
CC1CCc2nc(NC(=O)c3cccs3)sc2C1 (configuration not stated)	-0.11	0.68
CCCCNC(=O)O/N=C(\N)CS(=O)(=O)C(C)(C)C	-0.96	.
CC1=C(C(=O)N2CCOCC2)C(c2cc(Br)ccc2F)C2=C(CCCC2=O)N1 (configuration not stated)	.	1.9
Cn1c(=O)c2c(nc(NCCO)n2Cc2ccccc2Br)n(C)c1=O	-0.7	.
CCc1cc2c(cc3c(=O)n(CC(=O)NC(C)CC)ncn32)s1 (configuration not stated)	-0.76	0.18
O=C1CC(c2cc(F)ccc2F)c2cc3c(cc2N1)CCC3 (configuration not stated)	-2.2	.
COc1ccc(OC)c2c(C)cc(N3CCN(S(=O)(=O)c4ccc(C)cc4)CC3)nc12	-0.03	7.8*
CCN1CCN(C(=O)CCc2c(C)nc3c(c(C)nn3C(C)(C)C)c2C)CC1	-6.5	0.23
CCOC(=O)c1ccc(N2C(=O)c3n[nH]c(C)c3C2c2ccc(Br)cc2)cc1 (configuration not stated)	.	0.52
CCNc1nc(N2CCCCC2)nc2c1cnn2C	.	0.74
CCc1c(CN2CCc3ccccc3C2)csc1C	.	1.5
COc1ccccc1N1C(N)=NC(N)=NC1(C)C	1.2	.
COc1cc(Cl)c(C)cc1Nc1ncnc2c1nc1n2CCCCC1	.	-2
O=S(=O)(Nc1nc2ccccc2nc1Nc1ccc(F)cc1)c1ccccc1	0.36	-0.56
Cc1c(C(=O)Nc2ccc(F)cc2)oc2ccc3c(c12)C(=O)CC(C)(C)O3	.	-2.1
CCOC(=O)N1CCC(Nc2c(N3CCN(c4ccccc4)CC3)c(=O)c2=O)CC1	-0.51	1.3
O=C(CCCn1sc2ccccc2c1=O)NC1CCCc2ccccc21 (configuration not stated)	-0.51	2.7
Cc1cc(=O)[nH]c(SCc2cc(=O)n3nc(C)sc3n2)n1	-1.9	0.81
CCOc1ccc(C2C(C(=O)c3cc4ccccc4o3)=C(O)C(=O)N2CCN(C)C)cc1 (configuration not stated)	-1.4	3
Cc1noc(/C=C/N(C)C)c1S(=O)(=O)N1CCCC(C(=O)Nc2cccc(F)c2)C1 (configuration not stated)	0.64	.
CC(C)c1nc2ccccc2n1CC(=O)N(c1ccccc1)C(C)C	-1.3	2.1
Cc1nc2ccccn2c1-c1csc(Nc2ccccn2)n1	1.1	0.59
CCOC(=O)c1ccc(NC(=S)NC(C)c2ccc(Cl)cc2)cc1 (configuration not stated)	0.51	.
CCc1cc(C(=O)c2ccc(OC)cc2)c(NC(=O)c2ccc(C(F)(F)F)cc2)s1	-0.41	.
O=C(Nc1ccc2c(c1)OCCO2)c1cc(-c2ccccn2)n[nH]1	.	3.5
CCOC(=O)c1c(NC(=O)CSc2n[nH]c(=O)[nH]c2=O)sc(C)c1C	0.16	.
N=C(N)SCCc1ccc(OCc2ccc([N+](=O)[O-])cc2)cc1	-1.7	.
CN1C(=O)Cc2cc(S(=O)(=O)CCC(=O)N3CCN(c4cccc(Cl)c4)CC3)ccc21	.	0.61
CC(C)CC(NS(=O)(=O)c1ccc2[nH]c(=O)ccc2c1)C(=O)NC1CC1 (configuration not stated)	.	2.1
O=C(Cn1c(=O)n(Cc2ccco2)c(=O)c2sc3ccccc3c21)Nc1ccccc1	-1.3	1
CCC1CCCCN1CCCNC(=O)C1=C(C)C(=O)OC12CCN(C(C)=O)CC2 (configuration not stated)	.	0.53
CC1=NN(C)C(=O)/C1=N\OC(=O)c1c(-c2c(Cl)cccc2Cl)noc1C	-1.5	.
CCOC(=O)c1cnc(N2CCOCC2)nc1N	-0.88	.
Cc1c(C(=O)N(C)c2ccccc2Cl)sc2nc3n(c(=O)c12)CCCCC3	.	3
CCOC(=O)c1ccc(-n2c(C)c3c(OCC)cccc(=O)c3c2C)cc1	-0.02	0.48
O=C(Nc1ccc(Br)cc1F)c1noc2c1CCc1sccc1-2	-0.84	0.35
Oc1ccc(-c2n[nH]c(=S)o2)cc1	-0.06	.
CC(CCc1ccco1)N(C)S(=O)(=O)c1ccc(-c2cc(C(F)(F)F)on2)s1 (configuration not stated)	.	1.3
Cc1nc2nc(SCc3cc(=O)n4c(C)cccc4n3)nn2c(C)c1Cc1ccccc1	-0.5	.
Cc1nnc(SCC(=O)N(C)c2ccccc2)c2cc3occc3n12	.	0.76
CCCCN(CC)C(=O)Cn1ncn2cccc2c1=O	-0.18	.
Cc1ccc(Nc2nc(NC3CCCCC3)nc3c2cnn3C)c(C)c1	.	2.1
O=C(Cn1c2c(c(=O)n3ncnc13)CCC2)Nc1ccccc1	-0.88	-1.6

Entries shown so far that contain a CF3 group:
SMILES	CDC25B-CDK2 inh	TAR Tat displ
CN1CCN(Cc2c(O)ccc3c(=O)c(-c4ccccc4)c(C(F)(F)F)oc23)CC1	-0.81	0.81
CCOC(=O)c1ccc2c(c1)[C@@H]1C=CC[C@@H]1[C@H](c1ccccc1C(F)(F)F)N2	6.2	.
O=C(NCc1ccccc1)c1nn2c(c1Br)NC(c1ccccc1)CC2C(F)(F)F (configuration not stated)	-0.13	-0.13
CCCC1=NN(S(=O)(=O)c2ccc(C)cc2)C(O)(C(F)(F)F)C1 (configuration not stated)	-0.29	.
O=C(O)c1nccnc1C(=O)Nc1cc(C(F)(F)F)ccc1N1CCCC1	4	.
CCc1cc(C(=O)c2ccc(OC)cc2)c(NC(=O)c2ccc(C(F)(F)F)cc2)s1	-0.41	.
CC(CCc1ccco1)N(C)S(=O)(=O)c1ccc(-c2cc(C(F)(F)F)on2)s1 (configuration not stated)	.	1.3

Compounds were not picked by outcome; any-hit rate near 0.9%.
